TRPML1 inh = inhibitors of human TRPML1 channel. TRPML1-inducible cells, Ca2+ dye fluorescence, FDSS; stronger effect = lower value; inhibition of EC80 agonist-evoked calcium signal. activity change, negative = inhibition, % (concentration not given with the values). 390,000 compounds, 0.02% hits. AID 624415; in the data active means activity change below about -50%; inconclusive means about -30% to -50%; inactive means above about -30%;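 further: stimulus is agonist 54-4 at its EC80 concentration; on the % scale 0 is the no-effect control and ±100 the full control effect; the text of the record puts the active cut at -80%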
Target sequence (Q9GZU1 whole entry, looked up): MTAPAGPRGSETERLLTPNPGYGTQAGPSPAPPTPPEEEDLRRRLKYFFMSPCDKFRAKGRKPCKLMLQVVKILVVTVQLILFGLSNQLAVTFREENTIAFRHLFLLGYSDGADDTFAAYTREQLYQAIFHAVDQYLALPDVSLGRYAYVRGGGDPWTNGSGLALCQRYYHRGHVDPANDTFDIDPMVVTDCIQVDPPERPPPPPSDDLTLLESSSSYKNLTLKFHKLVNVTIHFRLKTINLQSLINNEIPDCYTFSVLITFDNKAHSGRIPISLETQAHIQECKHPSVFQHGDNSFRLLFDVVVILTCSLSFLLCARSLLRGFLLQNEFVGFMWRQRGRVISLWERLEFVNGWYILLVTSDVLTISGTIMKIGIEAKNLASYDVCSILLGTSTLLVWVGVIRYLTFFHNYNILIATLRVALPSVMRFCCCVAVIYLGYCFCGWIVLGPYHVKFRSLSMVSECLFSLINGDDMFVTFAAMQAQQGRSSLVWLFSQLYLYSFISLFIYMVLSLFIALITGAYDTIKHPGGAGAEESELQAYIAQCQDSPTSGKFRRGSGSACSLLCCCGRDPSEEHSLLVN
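TRPML1-DL cells, Tet-induced overnight (~16 h, 37 °C) at 1,500 cells/well, were loaded with Ca8 no-wash dye plus quencher for 45-90 min at room temperature. Compounds were pinned during FDSS kinetic reading; agonist 54-4 at EC80 (4 uM final) then added.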
TRPML1 agonist = activates the human TRPML1 channel. Q9GZU1. TRPML1-expressing cells, Ca2+ dye fluorescence, FDSS; host cell line not named in the record; reference of the full effect not given here. activation, % (no concentration beside the values). 410,000 compounds, 0.12% hits. AID 624414; in the data active = activation above about 50%; inconclusive = about 30% to 50%; inactive = below about 30%; further: 0% is about no effect; the text of the record puts the active cut at 80%
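Calcium fluorescence on an FDSS kinetic reader gave the read-out. Tet-induced TRPML1-DL cells were plated overnight, dye-loaded (Ca8 with quencher, 45-90 min, room temperature, dark), then read 110 s after compound addition, and again 110 s after 4uM final 54-4 (EC80).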
PINK1 expr mod = changes PINK1 expression; PINK1 immunofluorescence, high-content cytometry, 24 h; Potency, µM (highest dose often 76.6 µM), without a hit: at the top dose activation (PINK1 increase), most hits filed as activators; 410,000 compounds, 0.2% hits; AID 624263; active = well fitted activation curve with a large enough effect; inconclusive = small, poorly fitted or top-dose-only effect; inactive = flat fitted curve, though single readings scatter; cell line not stated here;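 further: potency means the concentration at half of the fitted maximal effect; % of control where 0% means no effect; nearly all actives have a fitted effect of over 65% in size; a mitochondrial uncoupler was the plate control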
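Measures PINK1 amount and localization on or inside mitochondria by immunofluorescence. Stable cells get compounds at 5 concentrations for 24 hours before fixation and staining; CCCP controls included.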
Six1-Eya2 inh = inhibitors of human Six1/Eya2 interaction; activity change, % (concentration not given with the values); 360,000 compounds, 0.56% hits; Q15475+O00167; AlphaScreen GST-Six1/His-Eya2 binding, biochemical; stronger effect = lower value; control for the full effect not named in the record; in the data active = activity change below about -65%; inconclusive = about -30% to -65%; inactive = above about -30%; further: on the % scale 0 is the no-effect control and ±100 the full control effect
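AlphaScreen with GST-Six1 and His-Eya2 (5X mix: 250 nM and 500 nM), glutathione donor and nickel acceptor beads; buffer 50 mM Tris pH 8.0, 300 mM NaCl, 1 mM TCEP; 1 h at 37 C in the dark.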
D2 ag = agonists of human D2 dopamine receptor (beta-arrestin). 360,000 compounds, 0.084% hits. DiscoveRx PathHunter D2 beta-arrestin, luminescence, 90 min; 100% = 57 uM dopamine signal. AID 624465. P14416. activation, % (concentration not given with the values); in the data active = activation above about 40%; inconclusive = about 15% to 40%; inactive = below about 15%; further: the text of the record calls up to 30% inactive
Target sequence (P14416 whole entry, looked up): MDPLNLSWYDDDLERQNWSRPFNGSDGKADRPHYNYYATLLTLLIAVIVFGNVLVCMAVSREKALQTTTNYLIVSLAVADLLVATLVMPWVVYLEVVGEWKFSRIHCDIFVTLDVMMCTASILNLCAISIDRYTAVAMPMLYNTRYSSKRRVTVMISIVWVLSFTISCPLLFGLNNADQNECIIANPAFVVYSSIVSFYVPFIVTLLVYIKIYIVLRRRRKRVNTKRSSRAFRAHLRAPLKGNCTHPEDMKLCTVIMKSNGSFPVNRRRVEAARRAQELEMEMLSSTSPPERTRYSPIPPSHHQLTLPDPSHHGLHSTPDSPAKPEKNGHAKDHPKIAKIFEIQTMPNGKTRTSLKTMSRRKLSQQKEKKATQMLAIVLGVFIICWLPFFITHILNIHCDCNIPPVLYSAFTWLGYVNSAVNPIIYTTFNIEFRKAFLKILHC
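DiscoveRx PathHunter D2 beta-arrestin cells (2,100/well) attached overnight, then compound-stimulated 90 min at 37 C in HBSS/10 mM HEPES/0.1% Tween-20 buffer; beta-galactosidase complementation read by luminescence after 1 h at ambient temperature. Dopamine 57 uM final (EC100) as control.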
CtBP-E1A blk = inhibitors of CtBP/E1A interaction; activity change, % (test concentration not listed); 340,000 compounds, 0.49% hits; AlphaScreen GST-E1A/His-CtBP binding, 1536-well; stronger effect = lower value; control for the full effect not named in the record; in the data active means activity change below about -65%; inconclusive means about -30% to -65%; inactive means above about -30%; further: on the % scale 0 is the no-effect control and ±100 the full control effect
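Steps: dispense buffer (Tris pH 8.0, NaCl 300 mM, TCEP 1 mM, BSA, Tween 20); add 5X protein mix (GST-E1A, His-CtBP, 125 nM each); pin 23 nL compound; 2 h at 37 °C, dark; add 5X beads (50 ug/mL); 1 h; read.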
* marks the source's active call; other numbers are inactive results; ? = inconclusive; / = no result given; [ ] = another dose, or the depositor's remark.

The line under a structure holds: TRPML1 inh | TRPML1 agonist | PINK1 expr mod | Six1-Eya2 inh | D2 ag | CtBP-E1A blk
- CC(=O)C1=C(C)NC2(O)c3ccccc3C(=O)C12O (stereo not drawn)
    8 | 1.6 | 1.2% | 4 | -3.4 | 13
- COc1ccc(C(=O)CC2SC(N)=NC2=O)cc1 (stereo not drawn)
    2 | 1.0 | -1.2% | 5 | 6.6 | 4
- O=S(=O)(c1ccc(Cl)cc1)N1CCCC(C(F)(F)F)C1 (stereo not drawn)
    3 | 4.5 | 0.9% | 8 | -0.4 | -4
- CCOc1ccc(NC(=O)CC2CC(C)(C)OC2=O)cc1 (stereo not drawn)
    1 | -1.0 | 0.6% | -1 | -0.4 | 1
- CCCOc1ccc(N2C(=O)CC(N3CCC(c4nncn4CC)CC3)C2=O)cc1 (stereo not drawn)
    -8 | -0.5 | 0.6% | -2 | -2.9 | -3
- Cc1cccc(C(=O)NCC(=O)NC(C)c2ccc(-n3ccnc3)cc2)c1 (stereo not drawn)
    20 | 0.8 | -1.2% | 8 | -3.6 | -1
- COc1ccc(-n2ncc3c(NCc4ccc5c(c4)OCO5)ncnc32)cc1
    3 | 1.5 | ? | 1 | 3.1 | -4
- CC1(C)CC(=O)c2c(O)cc(OCC(=O)NCCc3ccc(S(N)(=O)=O)cc3)cc2O1
    / | / | -0.1% | 1 | -4.1 | 0
- O=c1[nH]cnc(CN2CCCCC2)c1O
    -7 | 0.2 | 2.2% | -9 | -2.5 | 5
- Cc1cc(C)cc(NC(=O)CN2CCN(C(=O)c3cccs3)CC2)c1
    77 | 0.8 | 1.1% | 0 | -2.8 | -6
- COc1cc(=O)n(C)c2cc(N(C)C)ccc12
    20 | 0.8 | -0.1% | -11 | -1.6 | -5
- CNc1snc(C)c1C(=O)OCC(=O)N(C)c1ccccc1
    17 | -0.8 | 1.5% | 3 | -3.2 | /
- O=S(=O)(Cc1ccccc1)N1CCCCCC1
    -10 | 2.9 | 8.7%[38.3 µM] | 6 | -2.2 | 2
- COc1cc(OC)c(NC(=O)C2=C(C)C(=O)OC23CCCCC3)cc1Cl
    38 | -0.5 | 1.6% | / | / | /
- COC(=O)c1ccc(C)c(NS(=O)(=O)c2cn(C)nc2C)c1
    5 | -0.1 | 2.3% | 20 | -2.0 | 9
- COc1ccc(C2CC(=O)c3c(C)nc(N4CCN(c5ccccc5)CC4)nc3C2)cc1 (stereo not drawn)
    -1 | 1.8 | 9.5% | -2 | -3.0 | 1
- COc1cccc(C(=O)N(Cc2cc3cc(C)ccc3[nH]c2=O)C(C)C)c1
    -3 | 3.8 | 0.1% | 2 | -1.8 | 2
- COc1cccc(C(O)c2nc(-c3cccc(F)c3)cs2)c1 (stereo not drawn)
    / | -0.2 | 2.0% | 14 | -2.6 | 5
- CC(/C=N/NC(=O)Cn1nnc(N)n1)=C\c1ccc(C(C)C)cc1
    5 | 2.4 | 4.3% | 22 | 0.8 | 0
- COc1cc2ccc(C(C)=O)cc2cc1OC
    3 | -0.5 | 1.1% | -18 | -9.5 | -25
- COC(=O)c1ccccc1NC(=O)CSc1nnc2cc(C)c3cc(C)cc(C)c3n12
    5 | 0.2 | -1.0% | / | / | /
- CC1=C(C(=O)N(C)C)CC(CC(=O)NC2CCCC2)C(=O)N1Cc1ccccc1 (stereo not drawn)
    -14 | -0.1 | 1.7% | 5 | -5.6 | -2
- COc1cccc(C(=O)Oc2c(CN3CCOCC3)cc(Cl)c3cccnc23)c1
    -6 | -1.0 | -2.0% | -88* | -4.6 | -91*
- Cc1ccc(S(=O)(=O)c2nc(C)oc2N2CCOCC2)cc1
    -28 | 1.6 | -2.1% | 8 | -5.0 | 7
- CCCCNC(=O)C[C@@H]1C[C@@]2(C(=O)OC)CCCCC=C2N(Cc2ccco2)C1=O
    / | -1.0 | 0.8% | -1 | / | -1
- COn1c(-c2ccccc2)nc2c1CCc1nonc1-2
    -18 | -0.1 | 4.7% | 4 | -0.6 | -5
- CC(Oc1ccc2c(c1)oc(=O)c1ccccc12)C(=O)NCCN1CCOCC1 (stereo not drawn)
    19 | 0.0 | -0.5% | 0 | -5.1 | -4
- CCCn1c(SCC(=O)N2CCN(C(C)=O)CC2)nc2sc3c(c2c1=O)CCC3
    0 | 1.0 | 2.4% | -10 | 0.5 | 0
- Cn1nnnc1SCc1nc2scc(-c3ccccc3)c2c(=O)[nH]1
    21 | 1.3 | 0.8% | -12 | 0.3 | -5
- CC(Sc1nc2c(c(=O)n(C)c(=O)n2C)n1Cc1cc2c(cc1Cl)OCO2)C(=O)O (stereo not drawn)
    3 | 2.7 | -0.4% | -2 | -1.8 | 3
- CCN(CC(=O)Nc1ccc(NC(C)=O)cc1)C(=O)CSc1nnc(-c2ccco2)n1CC
    -2 | -0.3 | 0.9% | -5 | -2.6 | 7
- CCOC(=O)C(C(=O)Nc1cccc(C)n1)C1CCCCC1 (stereo not drawn)
    -10 | 2.0 | 2.0% | 4 | -2.1 | -5
- O=C(Nc1ccc(Br)cc1)C1CCN(S(=O)(=O)c2cccc3nsnc23)CC1
    15 | 0.2 | 6.4% | / | / | /
- NC(=O)COc1ccc(NC(=O)CC23CC4CC(CC(C4)C2)C3)cc1
    25 | 0.1 | 0.7% | -9 | -3.2 | -13
- CCOC(=O)[C@]12CCCC=C1N(Cc1cccc3ccccc13)C(=O)[C@H](CC(=O)NCc1ccccc1)C2
    / | -0.3 | 1.2% | -15 | / | -2
- O=c1cc(-c2ccccc2)ss1
    31 | -1.0 | 0.0% | -9 | -0.6 | -13
- CC(C)N1CCN(Cc2cccn2-c2nccs2)CC1CCO (stereo not drawn)
    7 | -0.2 | -1.6% | -4 | 1.2 | -5
- CCOc1ccc(-c2nnc3ccc(SCC(=O)Nc4nc5ccc(C)cc5s4)nn23)cc1
    12 | 1.1 | 10% | -15 | -4.4 | -5
- O=C(Cn1ccc2ccccc2c1=O)Nc1ccc2c(c1)OCO2
    -4 | -1.0 | 0.8% | 0 | -4.7 | -1
- CC(C)c1ccc(NS(=O)(=O)c2ccc3[nH]cc(C(=O)NC4CCCCC4)c(=O)c3c2)cc1
    39 | 0.7 | 0.1% | / | / | /
- CCCCN1C(=O)C(CC(=O)NCCN2CCOCC2)CC(C(=O)N2CCCCCC2)=C1C (stereo not drawn)
    / | -0.3 | 0.0% | 7 | / | 8
- CC1Cc2ccccc2N1C(=O)COC(=O)c1ccc([N+](=O)[O-])o1 (stereo not drawn)
    33 | 2.3 | 2.3% | -9 | 12 | 1
- COc1ccc(-c2cc(C(F)(F)F)n3nc(C(=O)O)c(Cl)c3n2)cc1OC
    -26 | -0.5 | 0.0% | / | / | /
- COc1ccccc1NC(=S)NNC(=O)c1cc(C)n(C)n1
    -1 | 1.1 | 2.1% | -27 | -4.2 | ?
- O=c1cc(-c2ccccc2)[nH]n1-c1ccccc1
    5 | -0.4 | ? | -5 | 1.9 | -1
- Cc1ccc2cccc(S(=O)(=O)N3CCCc4ccccc43)c2n1
    -1 | -0.3 | 1.4% | -2 | -0.8 | 3
- COc1ccc(N2CCN(C(=O)c3ccc(NC(=O)C4=CSCCO4)cc3)CC2)cc1
    0 | 0.2 | -0.4% | -8 | -2.0 | /
- Cc1ccc(C)c(NC(=O)CSc2ccc(-c3ccco3)nn2)c1
    -5 | 0.5 | 8.9% | -8 | -4.2 | 0
- Cc1ccc(S(=O)(=O)N2CCCCC2CCNC(=O)C(=O)NCc2ccco2)cc1 (stereo not drawn)
    24 | -0.6 | 3.9% | -11 | -1.6 | -5
- COc1cccc(Nc2nnc(SCC(=O)N(CC(C)C)CC(C)C)s2)c1
    -17 | 3.0 | 1.8% | -3 | -3.4 | -12
- CCCCC(=O)Oc1c(S(=O)(=O)c2ccc(C)cc2)c(C)nn1C(C)(C)C
    3 | 9.4 | 22% | 8 | -2.4 | 17
- CCOc1ccc(C(=O)Nc2nc3ccccc3[nH]2)cc1OCC
    -17 | -0.3 | 6.8% | -10 | -5.2 | -8
- CSc1ccc(CCNC(=O)CCc2c(C)nc3c4cccnc4nn3c2C)cc1
    -14 | -1.1 | 0.3% | / | / | /
- COC(=O)Cc1ccc(NC(=S)NCc2ccc(OC)cc2)cc1
    12 | -0.5 | 2.9% | 5 | -4.4 | 1
- COc1ccc(CC(=O)N2CC(=O)N(CCc3ccccc3)C(=O)C2)cc1
    -7 | 0.2 | -1.9% | 24 | -2.2 | 0
- CSc1ccccc1C(=O)Nc1nc2ccccc2c(=O)[nH]1
    -8 | 0.7 | -0.7% | -7 | 3.0 | -5
- CC1=C(C(=O)Nc2ccccc2)C(c2ccc(C)o2)n2ncnc2N1 (stereo not drawn)
    3 | -0.3 | -0.6% | -5 | -2.0 | -3
- CCCCN(C(=O)CSc1nnc(-c2ccccc2OC)n1C)c1c(N)n(Cc2ccccc2)c(=O)[nH]c1=O
    -18 | 0.5 | 3.2% | 18 | -2.9 | /
- Cn1cc(C(=O)N/N=C/c2ccc(Br)c([N+](=O)[O-])c2)c2ccccc21
    3 | 0.1 | 0.3% | 4 | -1.6 | 3
- COc1ccc(Cn2c(=S)[nH]c3cc(C(=O)N4CCCCC4)ccc3c2=O)cc1
    17 | -0.7 | 14% | 0 | -2.0 | 0

Carrying on:
The line under a structure holds: TRPML1 inh | TRPML1 agonist | PINK1 expr mod | Six1-Eya2 inh | D2 ag | CtBP-E1A blk
- Nc1c(C(=O)O)sc2nc(-c3ccc(F)cc3)cc(-c3ccccc3)c12
    -11 | 0.3 | 1.8% | -1 | -3.6 | /
- CCN1C/C(=C\c2cc(OC)c(OC)c(OC)c2)C2=NN(c3ccccc3)C(c3cc(OC)c(OC)c(OC)c3)C2C1 (stereo not drawn)
    15 | 0.0 | -0.7% | 18 | 1.2 | 21
- CSc1ccc(COC(=O)CCS(=O)(=O)c2ccc(C)cc2)cc1
    0 | 1.2 | -0.2% | 4 | -6.0 | 18
- Cc1[nH]c(-c2ccccn2)nc(=S)c1Cl
    -10 | 0.0 | 0.4% | ? | -0.9 | ?
- COc1ccc(S(=O)(=O)N2CCC(C(N)=O)CC2)cc1C(=O)N1CCCCCC1
    -10 | -0.4 | 4.0% | -1 | 1.5 | 3
- COc1ccc(C(=O)N2CCCCC2CCN2CCCCC2)cc1 (stereo not drawn)
    0 | -0.4 | 0.2% | / | / | /
- CCN(Cc1ccncc1)S(=O)(=O)c1ccc(C(C)=O)cc1
    5 | -0.6 | -1.6%[38.3 µM] | 0 | 3.5 | 1
- COc1ccc2ccccc2c1CNC(=O)CC1C(=O)NCCN1CC(C)C (stereo not drawn)
    -3 | -0.1 | 0.4% | -4 | -2.8 | -6

Profiles, looked up by structure. Values in the order: TRPML1 inh, TRPML1 agonist, PINK1 expr mod, Six1-Eya2 inh, D2 ag, CtBP-E1A blk
Record of Cc1[nH]c(-c2ccccn2)nc(=S)c1Cl = -10, 0.0, 0.4%, ?, -0.9, ?
Record of Nc1c(C(=O)O)sc2nc(-c3ccc(F)cc3)cc(-c3ccccc3)c12 = -11, 0.3, 1.8%, -1, -3.6, /
Record of COc1ccc(S(=O)(=O)N2CCC(C(N)=O)CC2)cc1C(=O)N1CCCCCC1 = -10, -0.4, 4.0%, -1, 1.5, 3

Hits appear at their usual frequency, and some 1% of all compounds hit somewhere here.
